gsp agonist – gsp mutant agonism; 340,000 tested, 0.13% active; gsp mutant cells, cAMP HTRF, 30 min; control for the full effect not named in the record; Potency, µM (series often up to 76.9 µM), inactives show at the top dose activation (cAMP increase), most hits filed as activators; AID 624287; active = well fitted activation curve with a large enough effect; inconclusive = small, poorly fitted or top-dose-only effect, or another doubt; inactive = no such curve, though single readings can be large or run the other way; cell line not stated here;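 further: phosphodiesterase inhibitor Ro 20-1724 added with compounds to block cAMP breakdown; potency means the concentration at half of the fitted maximal effect; nearly all actives have a fitted effect of over 60% in size; about a fifth of the inactives were tested at one dose only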
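Cells in DMEM/10% FBS with G418 were pretreated with compounds in DMSO plus […] (300 uM stock) for 30 min at 37C. cAMP was measured by HTRF (cAMP-d2 plus anti-cAMP antibody-K) after 30 min at room temperature.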
CtBP-E1A inh – CtBP/E1A binding inhibition | AlphaScreen GST-E1A/His-CtBP binding, 1536-well; hits give low values; control for the full effect not named in the record | activity change, % (concentration not given with the values) | 340,000 tested, 0.49% active | AID 651724; in the data active means activity change below about -65%; inconclusive means about -30% to -65%; inactive means above about -30%; further: on the % scale 0 is the no-effect control and ±100 the full control effect
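Protein mix (5X: 125 nM each GST-E1A, His-CtBP) was incubated with pinned compound 2 h at 37 deg C in dark, in 50 mM Tris pH 8.0 buffer with 300 mM NaCl. Glutathione donor and nickel acceptor beads followed; AlphaScreen signal read after 1 h.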
Six1-Eya2 blk – Six1/Eya2 interaction inhibition | Q15475+O00167 | AlphaScreen GST-Six1/His-Eya2 binding, biochemical; hits give low values; control for the full effect not named in the record | 360,000 tested, 0.56% active | activity change, % (test concentration not listed); in the data active = activity change below about -65%; inconclusive = about -30% to -65%; inactive = above about -30%; further: on the % scale 0 is the no-effect control and ±100 the full control effect; compound concentration not given in the record
Target sequence (O00167 whole entry, looked up): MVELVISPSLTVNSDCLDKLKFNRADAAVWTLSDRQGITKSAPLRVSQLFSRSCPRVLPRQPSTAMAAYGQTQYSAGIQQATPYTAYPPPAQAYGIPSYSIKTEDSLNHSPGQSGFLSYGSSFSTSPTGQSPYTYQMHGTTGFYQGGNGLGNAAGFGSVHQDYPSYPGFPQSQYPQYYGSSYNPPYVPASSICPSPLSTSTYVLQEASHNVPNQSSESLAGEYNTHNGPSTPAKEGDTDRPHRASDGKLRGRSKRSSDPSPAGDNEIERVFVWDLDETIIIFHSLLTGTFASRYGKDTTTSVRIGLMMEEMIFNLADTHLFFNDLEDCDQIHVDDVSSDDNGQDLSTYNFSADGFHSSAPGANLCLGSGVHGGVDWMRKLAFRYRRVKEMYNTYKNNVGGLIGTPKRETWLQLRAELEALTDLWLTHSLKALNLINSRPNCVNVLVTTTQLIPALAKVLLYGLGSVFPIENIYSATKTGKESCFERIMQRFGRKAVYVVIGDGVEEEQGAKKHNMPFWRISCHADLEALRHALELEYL
Target sequence (Q15475 whole entry, looked up): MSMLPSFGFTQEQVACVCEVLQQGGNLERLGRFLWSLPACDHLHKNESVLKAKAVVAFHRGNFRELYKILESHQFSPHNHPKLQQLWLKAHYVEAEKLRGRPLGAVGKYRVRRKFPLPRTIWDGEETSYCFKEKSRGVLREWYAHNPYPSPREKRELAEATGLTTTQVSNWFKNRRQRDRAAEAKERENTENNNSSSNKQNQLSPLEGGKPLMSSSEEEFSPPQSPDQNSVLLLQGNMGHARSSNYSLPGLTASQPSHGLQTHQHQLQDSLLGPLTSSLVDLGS
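Homogeneous AlphaScreen proximity assay pairing GST-Six1 with His-tagged Eya2 (added as 5X mix: 250 nM and 500 nM) in 50 mM Tris pH 8.0, 300 mM NaCl, 1 mM TCEP. Glutathione donor and nickel acceptor beads; 1 h, 37 °C, dark.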
D2 PAM – potentiates the human D2 dopamine receptor allosterically; 360,000 tested, 0.23% active; potentiation, % (concentration not given with the values); DiscoveRx D2 beta-arrestin cells, luminescence, 90 min; 100% = 57 uM dopamine signal; active = potentiation of 50% or more; inconclusive = 30% to 50%; inactive = 30% or less;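 further: compound concentration not given in the record; tested on top of an EC20 dose of dopamine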
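PathHunter D2 cells, attached overnight at 37 deg C, received compound in DMSO plus dopamine at EC20 (50 nM final) for 90 min at 37 deg C. Beta-arrestin recruitment was read as luminescence after 1 h with detection reagent at ambient temperature.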
D2 agonist – agonists of human D2 dopamine receptor (beta-arrestin). DiscoveRx PathHunter D2 beta-arrestin, luminescence, 90 min; 100% = 57 uM dopamine signal. activation, % (concentration not given with the values). 360,000 tested, 0.084% active. AID 624465; in the data active = activation above about 40%; inconclusive = about 15% to 40%; inactive = below about 15%; further: compound concentration not given in the record; the text of the record calls up to 30% inactive
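DiscoveRx PathHunter D2 beta-arrestin cells (2,100/well) attached overnight, then compound-stimulated 90 min at 37 C in HBSS/10 mM HEPES/0.1% Tween-20 buffer; beta-galactosidase complementation read by luminescence after 1 h at ambient temperature. Dopamine 57 uM final (EC100) as control.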
gsp antagonist – antagonizes gsp, the McCune-Albright syndrome mutation; gsp-mutant cells, cAMP HTRF, 30 min; control for the full effect not named in the record; 340,000 tested, 0.4% active; Potency, µM (top dose mostly 76.9 µM), without a hit: at the top dose activity change, negative = inhibition, most hits filed as inhibitors; active = falling curve of any shape with a large fitted effect; inconclusive = falling curve, mostly with a smaller effect; inactive = flat or rising curve; cell line not stated here;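 further: intracellular cAMP measured with PDE inhibitor Ro 20-1724 present during compound exposure; potency means the concentration at half of the fitted maximal effect; on the % scale 0 is the no-effect control and ±100 the full control effect; nearly all actives have a fitted effect of over 65% in size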
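Measurement of cellular cAMP by homogeneous time-resolved fluorescence following a 30 min compound exposure at 37C. The PDE inhibitor […] was present throughout; the assay buffer was DPBS with 0.05% BSA and 0.005% Tween 20.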
Starred values were filed as active, the others as inactive; ? = inconclusive; . = no result given; [ ] = remark or other dose.

SMILES	gsp agonist	CtBP-E1A inh	Six1-Eya2 blk	D2 PAM	D2 agonist	gsp antagonist
CCCCN(CC)CCCNC(=O)c1ccc(CS(=O)(=O)c2c(Cl)cccc2Cl)o1	-13.3%	9.4	6.5	-18.1	0.2	10.9%
COc1ccccc1NC(=O)c1ccc2c(c1)C(=O)N(Cc1ccco1)C2=O	14.4%	8.4	0.0	-8.8	1.3	2.5%
CC(C)NC(=O)COC(=O)Cn1[nH]c(=O)c2ccccc2c1=O	0.8%	-2.5	7.3	-4.8	-8.7	7.1%
CCOc1ccc(N(C)C(=O)CCc2nnc3ccc(NCc4ccco4)nn23)cc1	?	-1.7	-0.5	-4.7	-2.3	7.3%
C=CCOc1ccc(/C=N/NC(=O)CN(c2cc(Cl)ccc2OC)S(=O)(=O)c2ccc(C)c([N+](=O)[O-])c2)cc1	-19.3%	7.8	-7.2	-11.4	1.3	-21.9%
Cc1cc2ccccc2c(=O)n1CC(=O)NC1CCCCCC1	13.7%[15.4 µM]	8.8	1.2	-12.9	-5.4	7.5%
CCCN1Cc2cccc(C(=O)NC(C)c3cccs3)c2C1=O (configuration not stated)	-5.9%	-3.2	-1.6	-6.7	-1.8	-7.5%
COc1cc(C(C)=O)ccc1OCC(=O)NCC1(N2CCCCC2)CCCCC1	-76.3%[inhibitor]	.	-4.3	-2.8	-5.7	7.7%
O=C(CCc1c[nH]c2ccccc12)NCc1ccco1	-28.2%	0.1	-7.0	-4.1	-2.4	-1.7%
O=C(c1ccc(Cl)c(S(=O)(=O)Nc2ccc(F)cc2)c1)N1CCN(c2ccccn2)CC1	10.3%	0.2	-1.5	0.6	2.6	?
CC(C)(c1ccccc1)c1ccc(OCCN)cc1	-0.6%[15.4 µM]	7.2	22.2	-10.9	-4.7	16.4%
O=C(NC(=S)Nc1ncccn1)c1ccc(F)cc1	4.8%	3.6	4.5	-7.5	-4.4	-9.5%
CSCCC(NC(=O)c1ccccc1)C(=O)N1CCN(C(C)=O)CC1 (configuration not stated)	23.4%	-7.5	5.9	-10.8	-2.4	8.9%
CN(C)c1nccc(NCc2ccccc2)c1C#N	5.2%[15.4 µM]	-7.3	8.1	-2.8	-4.4	-1.3%
O=C(Nc1ccc(N2CCN(C(=O)c3ccco3)CC2)cc1)c1ccc2c(c1)OCO2	25.6%	-3.9	1.1	-4.4	0.7	-13.2%
Cc1ccc(-c2nc(C3CCN(S(=O)(=O)c4ccc(C(C)(C)C)cc4)CC3)no2)cc1	23.6%	5.8	-0.3	-3.8	-6.2	11.3%
O=[N+]([O-])c1cc(S(=O)(=O)Nc2cccc(Cl)c2)ccc1N=Nc1c(O)[nH]c2ccccc12	-11.7%	-1.4	-8.9	3.8	7.9	-11.8%
O=S(=O)(c1ccccc1)N1CCN=C1SCc1ccccc1Cl	2.5%	.	4.6	-3.4	2.0	-9.3%
CCc1ccc(N2CC(C(=O)Nc3ccc(S(=O)(=O)NCC4CCCO4)cc3)CC2=O)cc1 (configuration not stated)	-48.4%	1.8	3.7	-6.0	4.6	4.5%
Cc1ccc(C)c(NC(=O)CN(C)C(=O)c2ccccc2OCc2c(C)noc2C)c1	5.1%	-1.0	4.2	-5.3	-3.6	-11.5%
O=C(NCc1ccccc1)c1ccc(NS(=O)(=O)c2cccs2)cc1	-13.7%	-3.1	8.6	-6.8	7.4	1.1%
COc1ccc(OCc2nnc(SCC(N)=O)n2-c2ccccc2OC)cc1	-10.8%	5.6	0.3	-8.9	0.0	-9.9%
O=C(O)c1cccc(-c2nc3ccccc3[nH]2)c1	8.7%	10.2	0.1	2.0	1.3	7.8%
CCOC(=O)c1c(C)n(C)c2ccc(OCC(O)CN(CC)CC)cc12 (configuration not stated)	?	0.3	0.8	-5.8	-6.1	6.5%
COc1ccc(NC(=O)CCC(=O)N/N=C/c2ccncc2)cc1	12.4%	5.7	5.0	-3.8	-3.8	7.0%
CC(C(=O)NCC(=O)Nc1ccc(F)c(F)c1F)N1CCN(c2ccc(O)cc2)CC1 (configuration not stated)	-157.7%[inhibitor]	0.0	9.2	0.9	10.2	-9.7%
Cc1ccc(C)c(OCC(O)CN2CCCCC2C)c1 (configuration not stated)	-9.4%	0.6	-4.4	-29.0	-2.7	5.8%[15.4 µM]
O=C(O)Cn1cc(/C=c2/sc3nc4ccccc4n3c2=O)c2ccccc21	-13.5%[15.4 µM]	0.6	-2.6	-4.7	0.9	9.9%
COc1ccc(C(=O)N/N=C/c2cc(Br)ccc2O)cc1OC	0.6%	-91.0*	-67.7*	-14.0	-2.2	-26.8%
COC(=O)Nc1nn(Cc2ccccc2F)cc1Br	38.7%	-2.6	0.5	-3.9	-0.5	12.2%
CN(C)C(CNS(=O)(=O)c1ccc(Br)cc1)c1cccnc1 (configuration not stated)	?	3.2	5.4	-4.5	-1.7	17.8%
O=C(COC(=O)c1cc(S(=O)(=O)N2CCCCC2)ccc1Cl)NC1CCS(=O)(=O)C1 (configuration not stated)	1.6%	7.9	2.3	0.2	-0.4	-0.4%
O=C(c1cc(C(=O)NCCc2ccccc2)c(=O)n(CCc2ccccc2)c1)c1cc(Cl)ccc1O	5.4%	-22.6	-15.3	28.8	9.2	?
CCn1c(CNC(=O)c2ccc(Cl)cc2)nnc1SCC(=O)NC1=NCCS1	-1.4%[15.4 µM]	-9.2	0.0	2.6	-1.7	14.1%
Cc1c(NC(=O)CSc2nnc(-c3ccncc3)o2)c(=O)n(-c2ccccc2)n1C	?	11.7	4.5	-4.4	-5.7	4.5%
COc1ccc(CC(=O)c2ccc(OC3OC(CO)C(O)C(O)C3O)cc2O)cc1 (configuration not stated)	-18.0%	7.8	6.4	-0.3	-5.7	6.6%
Cc1nn(C)c(Cl)c1CN1CCC(Oc2ccc(C(=O)N3CCCC3)cc2)CC1	2.8%	4.7	-1.1	-13.5	-4.0	13.0%
O=C(Nc1cnccn1)Nc1cccc(Cl)c1Cl	1.3%[15.4 µM]	3.2	-0.4	-3.1	-3.4	5.5%
CCc1c(C)sc(NC(=O)c2cccs2)c1C(N)=O	-49.4%[inhibitor]	12.0	-17.6	2.0	0.2	-3.2%
O=C(Cn1cnc2c(NCc3ccccc3)ncnc21)NCc1ccccn1	.	5.5	-0.9	-8.4	-2.2	5.0%

Reprinted at random: 3 compounds from above.
SMILES	gsp agonist	CtBP-E1A inh	Six1-Eya2 blk	D2 PAM	D2 agonist	gsp antagonist
COC(=O)Nc1nn(Cc2ccccc2F)cc1Br	38.7%	-2.6	0.5	-3.9	-0.5	12.2%
Cc1c(NC(=O)CSc2nnc(-c3ccncc3)o2)c(=O)n(-c2ccccc2)n1C	?	11.7	4.5	-4.4	-5.7	4.5%
CCn1c(CNC(=O)c2ccc(Cl)cc2)nnc1SCC(=O)NC1=NCCS1	-1.4%[15.4 µM]	-9.2	0.0	2.6	-1.7	14.1%

Marked active in Six1-Eya2 blk, of those listed so far:
SMILES	gsp agonist	CtBP-E1A inh	Six1-Eya2 blk	D2 PAM	D2 agonist	gsp antagonist
COc1ccc(C(=O)N/N=C/c2cc(Br)ccc2O)cc1OC	0.6%	-91.0*	-67.7*	-14.0	-2.2	-26.8%

(more compounds)
SMILES	gsp agonist	CtBP-E1A inh	Six1-Eya2 blk	D2 PAM	D2 agonist	gsp antagonist
CC(C)(C)CC(=O)O/N=C(\N)c1ccccn1	0.6%	-3.5	-13.5	-2.7	-0.2	37.0%[activator]
CC1CC(=O)Nc2ccccc2N1C(=O)CSc1ccc2ccccc2n1 (configuration not stated)	11.1%[15.4 µM]	-9.2	7.1	-19.3	-3.3	-4.2%
NCCCCCc1nnc(SC/C=C/c2ccccc2)o1	-5.4%	5.7	-1.2	-12.2	-2.2	9.1%
Cc1ccc(C(=O)Nc2cc(Cl)ccc2Oc2ccccc2)cc1[N+](=O)[O-]	-16.6%[15.4 µM]	-4.6	0.0	-6.9	0.2	3.4%
CCN(CC)CCn1c(=S)[nH]c2ncccc2c1=O	28.8%	-4.0	9.2	-23.9	0.1	12.1%
O=C(O)c1ccc(CSc2nnc(-c3ccccc3Cl)n2-c2ccccc2)cc1	-2.7%[15.4 µM]	0.0	5.9	-3.7	-2.5	-29.0%
Cc1cc(-c2ccc(C)c(S(=O)(=O)N3CCN(c4ccccn4)CC3)c2)on1	9.2%	.	-15.7	-6.0	5.9	-5.4%
CCCC(O)(CCN1CCOCC1)c1ccc(Br)cc1 (configuration not stated)	-10.1%	3.8	6.3	-8.0	-0.2	6.4%
C#CCOCCOCCOCCNc1nc(N2CCN(C(=O)[C@H]([C@@H](C)CC)n3cc(CCC(=O)O)nn3)CC2)nc(N2CCN(C(=O)[C@H](C)n3cc(CCCN=C(N)N)nn3)CC2)n1	.	0.9	-0.4	-34.3	-2.9	0.2%
Cc1ccc(N/C(N)=N/c2nc(C)cc(N3CCCCC3)n2)c(C)c1	8.9%[15.4 µM]	.	-18.7	-18.1	5.6	-13.5%
O=C(Nc1cccc(-c2nn[nH]n2)c1)c1ccc(Cl)s1	-35.0%[inhibitor]	?	?	-8.5	-1.3	-17.2%
COc1ccccc1CCN1CCCC(CN(C)C(=O)c2ccc3nc[nH]c3c2)C1 (configuration not stated)	27.9%	8.6	-2.0	-35.9	-5.2	4.4%
Cn1[nH]cc(C=NC(N)=O)c1=O	-0.6%	15.8	3.3	-11.5	-1.7	6.4%
Cc1noc(C)c1S(=O)(=O)Nc1ccc2c(c1)C(=O)N([C@H](C)CO)C[C@H](C)[C@@H](CN(C)C(=O)Nc1ccc3c(c1)OCO3)O2	.	-1.7	1.4	-7.8	-1.1	2.9%
CCCC(=O)N1CCN(c2nc(CC(C)C)c3c(c2C#N)CCC3)CC1	-4.6%[15.4 µM]	-2.1	-10.7	-6.1	-4.3	-22.2%
CN1CCc2c(sc3c2c(NCc2ccco2)nc2nnnn23)C1	1.1%	-17.6	-4.6	-23.9	1.5	14.5%
CC(=O)c1cc(CN2CCC(N3CCC(C(=O)NC(C)C)CC3)CC2)cs1	7.6%	13.1	-2.0	-2.0	-1.1	5.8%
CC(C)c1nnc(NC(=O)C2CCCN(C(=O)Nc3ccc(F)cc3)C2)s1 (configuration not stated)	1.7%	-0.3	3.3	4.2	2.3	-7.2%
FC(F)(F)c1ccc(/C=N/n2c(C3CCCCC3)n[nH]c2=S)cc1	-6.1%	.	-19.5	-14.5	4.9	-16.3%
Cc1c(Cl)cccc1NC(=O)c1cccc(NC(=O)CCC(=O)O)c1	-10.1%	0.0	-3.9	-3.7	1.4	-2.5%
Cc1ccnc(NC(=O)CCC(=O)N(CC(=O)NCC2CCCO2)Cc2ccc(F)cc2)c1 (configuration not stated)	?	5.6	-3.2	-10.0	-1.1	-10.5%
Cc1cc(C(=O)Nc2ccc([N+](=O)[O-])cn2)cs1	-1.7%	.	-4.6	-2.9	9.0	1.9%

Not a hit list; any-hit rate near 1.4%.
